Screens (PubChem BioAssay)
Cruzain inh noDet: inhibitors of Trypanosoma cruzi cruzain without detergent; Potency, µM, without a hit: max response, negative = inhibition, most hits filed as inhibitors; hit rate 2.3% among 200,000; purified cruzain, Z-FR-AMC fluorescence, no detergent; P25779; active = well fitted curve in the direction sought with a large enough effect; inconclusive = small, poorly fitted or top-dose-only effect, or another doubt; inactive = no such curve, though single readings can be large; an effect the other way counts as inactive or inconclusive;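 also: plate controls were enzyme without inhibitor for no effect and buffer without enzyme for full effect; nearly all actives have a fitted effect of over 40% in size; top concentration of the series not given in the record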
Target sequence (P25779 123-467 limits assumed): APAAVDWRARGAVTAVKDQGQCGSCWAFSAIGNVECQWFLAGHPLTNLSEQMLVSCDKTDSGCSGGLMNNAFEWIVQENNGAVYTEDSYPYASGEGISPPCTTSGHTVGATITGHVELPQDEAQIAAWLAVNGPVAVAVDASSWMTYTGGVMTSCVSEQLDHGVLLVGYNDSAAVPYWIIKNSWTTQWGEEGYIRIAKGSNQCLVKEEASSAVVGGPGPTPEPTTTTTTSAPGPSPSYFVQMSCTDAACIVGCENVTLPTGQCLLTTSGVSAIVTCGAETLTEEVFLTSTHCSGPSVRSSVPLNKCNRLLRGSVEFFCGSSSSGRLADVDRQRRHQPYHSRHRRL
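Purified cruzain at 1.5 nM, pre-incubated 15 min with compound at room temperature in 100 mM sodium acetate pH 5.5, 5 mM DTT, 0.00005% Triton X-100. Reaction started with 2 uM Z-FR-AMC; AMC fluorescence increase over 60 s gives rate.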
StopGo reporter: lowers the luciferase signal of an FMDV 2A StopGo reporter. human cells with a luciferase reporter of 2A StopGo recoding; control for the full effect not named in the record. Potency, µM (top dose mostly 57.9 µM), without a hit: at the top dose signal change, negative = less light. hit rate 1.2% among 410,000; active = well fitted falling curve with a large enough effect; inconclusive = small, poorly fitted or top-dose-only effect; inactive = no such curve, though single readings can be large or run the other way; tested in HEK293T cells; also: % is scaled to controls: 0 for no effect and ±100 for the full control effect; nearly all actives have a fitted effect of over 45% in size; luciferase light after 4 h
RE007 growth inh: less growth of the S. pombe RE007 Vpr strain; S. pombe RE007 Vpr strain, BacTiter-Glo ATP luminescence, 24 h; control for the full effect not named in the record; Potency, µM (highest dose often 92.2 µM), without a hit: at the top dose activity change, negative = less growth; hit rate 0.21% among 360,000; AID 651644; active = well fitted falling curve with a large enough effect; inconclusive = small, poorly fitted or top-dose-only effect; inactive = no such curve, though single readings can be large or run the other way;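 also: % is scaled to controls: 0 for no effect and ±100 for the full control effect; nearly all actives have a fitted effect of over 50% in size; the assay follows cell death caused by Vpr and the record does not say whether a fall means rescue or toxicity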
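Fission yeast RE007 carrying one integrated HIV-1 vpr copy, seeded at OD 0.01 in PMG+AL medium with 23 nL pinned compound. Grown 24 h at 30 degrees; viability read by BacTiter-Glo luminescence after 5 min.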
Lassa entry inh: inhibitors of Lassa virus binding or cell entry; Lassa virus pseudotype entry inhibition, cell reporter; control for the full effect not named in the record; Potency, µM (series often up to 37.9 µM), without a hit: at the top dose activity change, negative = inhibition, most hits filed as inhibitors; hit rate 1.2% among 300,000; active means well fitted inhibition curve with a large enough effect; inconclusive means small, poorly fitted or top-dose-only effect, or effect the other way; inactive means flat fitted curve, though single readings scatter; tested in HEK293 cells; also: % is scaled to controls: 0 for no effect and ±100 for the full control effect; nearly all actives have a fitted effect of over 50% in size; luciferase read-out
Cruzain inh Det: cruzain (T. cruzi) inhibition with detergent | P25779 | purified cruzain, Z-FR-AMC fluorescence, 0.01% Triton | Potency, µM, for the others: max response, negative = inhibition, actives largely listed as inhibitors | hit rate 0.43% among 200,000 | AID 1478; active = well fitted curve in the direction sought with a large enough effect; inconclusive = small, poorly fitted or top-dose-only effect, or another doubt; inactive = no such curve, though single readings can be large; an effect the other way counts as inactive or inconclusive;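 also: plate controls were neutral wells for no effect and buffer without enzyme for full effect; nearly all actives have a fitted effect of over 40% in size; top concentration of the series not given in the record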
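Steps: dispense cruzain (1.5 nM final) in acetate buffer pH 5.5 with DTT and 0.01% Triton X-100; pin-transfer compounds; incubate 15 min RT; add Z-FR-AMC (2 uM final); read fluorescence every 30 s, using the 60 s intensity change.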
NS1 function inh: inhibitors of influenza NS1 protein function | S. cerevisiae slowed by influenza A NS1, growth recovery by OD600 | Potency, µM (series often up to 46.1 µM), without a hit: at the top dose activity, positive = more growth | hit rate 0.4% among 270,000; also: actives are rising curves; nearly all actives have a fitted effect of over 50% in size
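OD600 was taken as the measure of yeast growth restored by compound in an NS1-expressing S. cerevisiae strain. Cells had been washed out of glucose medium and diluted 1:100 into galactose -URA medium, pH 6.0.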
MARV entry inh: inhibitors of Marburg virus binding or cell entry. Marburg virus pseudotyped entry inhibition, cell reporter; control for the full effect not named in the record; about a third of the inactives were read at about 46 µM. Potency, µM (doses to about 37.8 µM), for inactives: at the top dose activity change, negative = inhibition, most hits filed as inhibitors. hit rate 1.8% among 300,000. AID 540276; active = well fitted inhibition curve with a large enough effect; inconclusive = small, poorly fitted or top-dose-only effect, or effect the other way; inactive = flat fitted curve, though single readings scatter; tested in HEK293 cells; about a fifth of its hits are not listed in these tables; also: % is scaled to controls: 0 for no effect and ±100 for the full control effect; luciferase read-out
SARS PLP yeast: blocks SARS-CoV papain-like protease in a yeast assay | S. cerevisiae expressing SARS-CoV PLpro, growth rescue; control for the full effect not named in the record | Potency, µM (highest dose often 32.9 µM), without a hit: at the top dose activity, positive = growth rescue | hit rate 0.19% among 330,000 | AID 485353; also: 0% is about no effect; nearly all actives have a fitted effect of over 55% in size; growth read by luminescence after 48 h
* hit, by the source's call; ? = inconclusive; . = no result given; & = joins results of further samples; [ ] = another dose, or the depositor's remark. Unless noted, calls follow the shape of the dose curve; as a rule, active means well fitted rising curve with a large enough effect; inconclusive means small, poorly fitted or top-dose-only effect; inactive means no such curve, though single readings can be large or run the other way. Potency is read from the fitted curve at half-maximal effect.

No.	smiles	Cruzain inh noDet	StopGo reporter	RE007 growth inh	Lassa entry inh	Cruzain inh Det	NS1 function inh	MARV entry inh	SARS PLP yeast
1	O=C(O)c1cc(S(=O)(=O)N(Cc2ccccc2)c2cccc(C(F)(F)F)c2)ccc1Cl	.	-14%	2%	.	.	4%	.	1%
2	COc1ccc(CCNC(=O)CSc2nnc3ccc(-c4ccccn4)nn23)cc1	.	-4%	-2%	0%[46.1 µM]	.	.	-16%	0%
3	COc1ccc(OC)c(CN2CCCC(C(=O)c3ccccc3SC)C2)c1 (stereo unspecified)	.	?	10%	?	.	-3%	2.5µM*	0%
4	CCc1cc2c(=O)n(CCC(C)C)c(=S)[nH]c2s1	.	-7%	-10%	-11%	.	.	3%[46.1 µM]	0%
5	CC(=O)c1ccc(NC(=O)CCC(=O)OCC(=O)c2cccc([N+](=O)[O-])c2)cc1	.	1%	12%	12%	.	13%	-22%[46.1 µM]	-3%
6	COc1ccc(C2CC(=O)Oc3c2c(=O)oc2ccccc32)c(OC)c1OC (stereo unspecified)	-16%	-12%	.	9%[46.1 µM]	-2.0%	.	27%[46.1 µM]	.
7	CC(C)c1[nH]nc2c1C(C(C)C)C(C#N)=C(N)O2 (stereo unspecified)	5%	?	-7%	?	1.8%	1%	-24%	4%
8	CCN(C(=O)CSc1nnc(COc2cccc(C)c2)o1)c1nc(C)cs1	.	3%	5%	12%[46.1 µM]	.	-2%	2%[46.1 µM]	1%
9	Cc1c(Cl)cccc1N1CCn2c1nc1c2c(=O)n(CC(=O)O)c(=O)n1C	-12%	-27%	.	?	-3.8%	.	-4%[46.1 µM]	.
10	CCOCCn1c(CN2CCCC(C)C2)nc2c1c(=O)n(C)c(=O)n2C (stereo unspecified)	.	-16%	15%	.	.	9%	.	0%
11	CSc1cccc(NS(=O)(=O)c2cccc3nsnc23)c1	-4%	32%[activator]	5%	15%	-5.2%	-5%	2%	-7%
12	COc1cccc(CNC(=O)CC2C(=O)NCCN2Cc2ccoc2)c1OC (stereo unspecified)	.	4%	2%	-10%[46.1 µM]	.	1%	?	0%
13	COC(=O)c1c(C)oc2ccc(NS(=O)(=O)c3cccs3)cc12	-19%	-28%	-4%[3.69 µM]	-29%	-4.1%	-35%	?	-3%
14	O=C(Cc1ccccc1)Nc1ccc(F)cc1	.	18%	-4%	7%[46.1 µM]	.	-3%	-3%[46.1 µM]	-1%
15	CC(OC(=O)c1cccs1)C(=O)Nc1nc(-c2ccccc2)cs1 (stereo unspecified)	-2%	-4%	-22%	?	-6.4%	-12%	-5%[46.1 µM]	18%
16	O=C(Nc1cccc(-n2cnnn2)c1)c1cc(Cl)ccc1Cl	.	0%	7%	.	.	-4%	.	-2%
17	O=C(Nc1ccc(-c2n[nH]c(=S)o2)cc1)c1ccccc1Br	.	51%[activator]	7%	.	.	8%	.	-1%
18	COC(=O)c1nccnc1C(=O)Nc1ccccc1N1CCOCC1	.	-13%	1%	7%[46.1 µM]	.	7%	24%[46.1 µM]	0%
19	[O-][n+]1onc2c1CCC1N(O)C(c3ccccc3)CC21O (stereo unspecified)	3%	3%	1%	24%	4.5%	7%	-1%	-2%
20	O=C(Cc1cccs1)N/N=C/c1ccccn1	.	-3%	-13%	3%[46.1 µM]	.	-3%	30%[46.1 µM]	0%
21	COc1ccc(-c2csc3ncnc(N4CCN(c5ccc(OC)cc5)CC4)c23)cc1	.	?	0%	.	.	-24%	.	-2%
22	CCc1nnc(NC(=O)c2ccc(COc3cccc(C)c3)o2)s1	.	27%	-4%	?	.	8%	23%[46.1 µM]	-1%
23	COc1cccc(C(=O)Nc2ccc3c(c2)C(=O)NC3=O)c1	.	18%	-3%	.	.	5%	.	10%
24	O=C(NC1CCCC1)c1cccc(NC(=O)c2ccco2)c1	-3%	7%	14%[3.69 µM]	-1%	2.6%	2%	-5%	8%
25	CC(C)CNC(=O)c1cccc(NC(=O)c2ccco2)c1	1%	.	1%	7%	8.8%	2%	13%	-7%

The listing continues.
No.	smiles	Cruzain inh noDet	StopGo reporter	RE007 growth inh	Lassa entry inh	Cruzain inh Det	NS1 function inh	MARV entry inh	SARS PLP yeast
26	COc1ccc(C(N)=O)cc1NC(=O)c1cccc(F)c1	-1%	-23%	12%	-1%	3.9%	-6%	1%	?
27	COc1ccc(NC(=O)CNc2ccccc2N2CCCC2=O)cc1S(=O)(=O)N1CCOCC1	.	-9%	7%	8%	.	.	0%	1%
28	Cc1ccc(C(=O)C[n+]2cc(Br)cc(Br)c2)cc1	.	4%	-7%	-2%[46.1 µM]	.	3%	?	0%
29	CCn1nnc2cc(C(=O)Nc3ccc(C)c(Cl)c3)ccc21	-8%	16%	.	-3%[46.1 µM]	2.6%	.	.	.
30	O=C(NC1CCCCC1)c1ccc2c(c1)N(Cc1ccc(F)cc1)C(=O)c1ccccc1S2(=O)=O	-8%	-1%	.	-5%[46.1 µM]	3.2%	.	8%[46.1 µM]	.
31	Cc1c(Cc2ccccc2)sc(NC(=O)/C=C/c2cccc3ccccc23)c1C(N)=O	5µM*	-25%	-7%	?	-5.0%	-1%	?	-6%
32	COC(=O)COc1ccc(S(=O)(=O)NCCC2=CCCCC2)cc1	-3%	.	-19%	5%	-4.5%	-15%	-2%	-6%
33	O=C(Nc1ccc(S(=O)(=O)N2CCCC2)cc1)c1ccc(CN2CCOCC2)cc1	-4%	16µM*	12%	?	-4.9%	-25%	?	1%
34	Cn1c(=O)c2c(SCCN3CCOCC3)nc(C3CCCC3)nc2n(C)c1=O	.	0%	0%	10%	.	.	14%	2%
35	CN(CC(=O)OCC(=O)NCc1ccccc1)S(=O)(=O)c1ccc(Cl)cc1	8%	-19%	-6%	3%	-2.5%	-47%	-2%	14%
36	Cc1ccc(S(=O)(=O)N2CCOCC2)cc1C(=O)N1CCc2ccccc21	.	24%	-10%	12%[46.1 µM]	.	.	-3%[46.1 µM]	-1%
37	Cc1cc(C)nc(NC(=S)Nc2ccccc2)n1	.	20%	-16%	15%	.	0%	11%	0%
38	S=C(Nc1cccnc1)NC1CCCCCCC1	5%	49%[activator]	10%	?	0.1%	-11%	?	-19%
39	CC(C)Oc1ccc(S(=O)(=O)N2CCCCC2)cc1NC(=O)C1=COCCO1	.	-5%	6%	?	.	.	-19%	1%
40	COc1ccc(OC)c(S(=O)(=O)N2CCN(CC(O)COc3ccc(C#N)cc3)CC2)c1 (stereo unspecified)	.	?	4%	-14%	.	-10%	-11%[46.1 µM]	-8%
41	COC(=O)C(Sc1nc(C)cc(C)c1C#N)c1ccccc1 (stereo unspecified)	-4%	.	10%	0%	-0.5%	3%	19%	-17%
42	CC(=O)NCCOc1nc(N2CCCCC2)nc(N2CCCCC2)n1	.	0%	-4%	1%	.	-4%	4%[46.1 µM]	0%
43	Cn1nc(C2CC2)cc1NC(=O)CC(CC(=O)O)c1ccccc1 (stereo unspecified)	.	-7%	4%	-12%[46.1 µM]	.	5%	?	0%
44	CCOc1ccc(-n2c(SCc3ccc(C(=O)OC)o3)nc3c([nH]c4ccccc43)c2=O)cc1	20%	-19%	.	0%[46.1 µM]	-2.2%	.	.	.
45	CC1CCCCN1C(=O)CCC(=O)Nc1nnc(C(F)(F)F)s1 (stereo unspecified)	.	4%	0%	.	.	2%	.	5%
46	CCC(Sc1nc2n[nH]c(C)c2c(=N)n1-c1cccc(Cl)c1)C(=O)NCCOC (stereo unspecified)	?	?	4%	?	-3.3%	5%	?	-7%
47	CCOc1ccc(-c2cc(C)[n+](CCN3CCOCC3)c(-c3ccc(OCC)cc3)c2)cc1	.	?	-5%	-27%	.	4%	?	0%
48	CCSC1=C(C#N)C(c2cccs2)C(C(=O)OC)=C(C)N1 (stereo unspecified)	-11%	-24%	5%	?	-2.3%	-15%	26%	1%
49	Cc1ccc(NC(=O)Nc2ccccc2)c(Br)c1	4%	32%[activator]	-14%	1%	3.9%	-9%	?	9%
50	CCOc1ccc(C2=NC(c3ccncc3)=Nc3ccc(C)cc3N2)cc1OCC	?	-28%	.	-22%[46.1 µM]	-3.7%	.	?	.

The list goes on:
No.	smiles	Cruzain inh noDet	StopGo reporter	RE007 growth inh	Lassa entry inh	Cruzain inh Det	NS1 function inh	MARV entry inh	SARS PLP yeast
51	COc1ccc2nc(NC(=O)c3ccccc3-c3ccccc3C(=O)O)sc2c1	.	-14%	11%	.	.	10%	.	0%
52	C/C(=N\N1CCCCC1)c1c(O)[nH]c(=O)[nH]c1=O	2%	-11%	.	5%	-1.6%	5%	1%	?
53	O=C(NCc1cccnc1)c1cc(Sc2ccccc2Cl)nc2ccccc12	-4%	-25%	14%	?	-3.9%	-13%	?	-3%
54	O=C(O)COc1ccccc1/C=N/NC(=O)CSc1nnc(SCc2ccc(Cl)cc2)s1	.	0%	2%	.	.	12%	.	-4%
55	COc1ccc(-c2nnn(CC(=O)N(C3CCCC3)C(C)C(=O)NC3CCCC3)n2)cc1OC (stereo unspecified)	10%	3%	-15%	-14%	0.1%	8%	1%&-4%	4%
56	C=CCOC(=O)C(=O)/C=C/c1csc2ccccc12	.	-4%	15%	.	.	-51%	.	-7%
57	Cc1cc(C(=O)CSC(C)c2nc3ccccc3c(=O)[nH]2)c(C)n1C (stereo unspecified)	2%	6%	6%	-5%	0.8%	-2%	17%	1%
58	CC(=O)c1ccc(-n2c(-c3cc(-c4ccco4)[nH]n3)n[nH]c2=S)cc1	?	-2%	10%	9%	-2.9%	5%	0%	9%
59	CC1=CC2=NC(=O)C(c3ccccc3)C(=O)N2C=C1 (stereo unspecified)	.	20%	-10%	-10%[46.1 µM]	.	.	?	.
60	COc1ccc(CCn2c(O)c(C=Nc3ccc(F)cc3)c(=O)[nH]c2=O)cc1OC	.	32µM*	3%	.	.	2%	.	1%
61	O=C(CCCC1=NS(=O)(=O)c2ccccc2N1)Nc1ccccc1	.	29%	-5%	.	.	4%	.	5%
62	O=C(NCC(=O)N1CCN(S(=O)(=O)c2ccccc2C(F)(F)F)CC1)c1sc2ccccc2c1Cl	.	-13%	-11%	-3%	.	.	24%	1%
